# Bead autofluor – counter-screen for toxin protease inhibitors: compound fluorescence; compound autofluorescence counterscreen, microsphere flow cytometry; hits give high values; fluorescence intensity (test concentration not listed); 3.1% of 360,000 active; AID 624483;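 active means at least 3 SD above the mean of all compounds, about 16000 in these data; inconclusive means too few beads counted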;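 further: 100 nL of 1 mM stock went into each well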
# Sa RN4220 lethal – kills Staphylococcus aureus RN4220; inhibition, % (no concentration beside the values); 0.33% of 330,000 active; S. aureus RN4220 growth, OD600, 16 h; AID 1259311;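 active means z-score of -3 or lower and OD600 up to 0.18 on both plates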;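 further: plate controls were untreated cells for no effect and reference antibiotic for full effect; stock transfer was 100 nL into about 80 µL; one replicate is shown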
# BJeLR lethal – kills HRASV12-expressing BJeLR cells. BJeLR (HRASV12) viability, CellTiter-Glo ATP luminescence, 48 h; reference of the scale not given here. inhibition, % (test concentration not listed). 0.17% of 300,000 active;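 active means replicate mean above 50%; inconclusive means above 50% but judged a plate artefact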;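 further: 50 nL library stock added to about 25 µL; numbers are from one replicate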
# Mtb hypoxia rep – Mtb hypoxia fluorescent reporter inhibition | 0.1% of 300,000 active | AID 1159583 | M. tuberculosis hypoxia-regulated fluorescent reporter, fluorescence | fluorescence inhibition, % (concentration not given with the values);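 active means 35 to 45% if threefold the growth effect, above 45% if 1.5-fold the growth effect; inactive means the rest, general growth blockers included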;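 further: wells of about 50 µL received 100 nL stock; 0% = vehicle wells and 100% = reference inhibitor wells; whole bacteria with a GFP reporter of the hypoxia response; strong numbers were not always called active; many hits fall short of the cut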
# ugtP null kill – kills S. aureus RN4220 lacking UgtP; S. aureus RN4220 ugtP deletion, OD600 growth, 16 h; some inactives read as strong as hits; growth inhibition, % (concentration not given with the values); 0.54% of 330,000 active; AID 1259309;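 active means z-score under -3 and OD600 up to 0.15 on both plates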;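 further: plate controls were untreated wells for no effect and antibiotic for full effect; wells of about 80 µL received 100 nL stock; the first replicate is given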
# PrP 5UTR inh – inhibition of PrP 5' UTR reporter expression; cell-based PrP 5' UTR mRNA reporter, plate reader; inhibition, % (no concentration beside the values); 0.35% of 340,000 active; AID 488862;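 active means every replicate at 50% or more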;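 further: 0 = median of the neutral control wells; tested in H4 reporter cells; numbers are from one replicate; inactives centre near -14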
# Mtb hypoxia rep growth – also measured in Mtb hypoxia rep; calls as there; growth inhibition, %; measured here: M. tuberculosis growth (absorbance);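 0% = vehicle and 100% = reference antibiotic; read after six days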
# An asterisk follows results filed as active; ? = inconclusive; · = no result given.
SMILES,Bead autofluor,Sa RN4220 lethal,BJeLR lethal,Mtb hypoxia rep,Mtb hypoxia rep growth,ugtP null kill,PrP 5UTR inh
CC1(C)Oc2ccc3ccc(=O)oc3c2C(C=NO)=C1Cl,·,2.6,·,-1,12,3,·
O=C(Nc1c(-c2ccccc2)nc2ccccn12)c1ccccc1,4698,9.2,4,14,5,14,-24
CCOC(=O)c1c(-c2ccco2)csc1NC(=O)CSc1nnc(N)s1,11521,2.2,2,3,8,3,-21
CCCOc1ccc(-c2nnn(CC(=O)N3CCC(C)CC3)n2)cc1,7985,1.7,5,9,18,10,-28
O=C(CNCc1cccs1)Nc1cc(S(=O)(=O)N2CCCC2)ccc1Cl,4244,1.8,5,-11,-9,3,6
CC(=O)c1ccc(N2CCN(C(=O)Cn3cnc(S(=O)(=O)N4CCCCC4)c3)CC2)cc1,6021,4.4,4,0,-4,3,-17
COc1ccc(NC(=O)CCN2CCCC(C)C2)cc1 (stereo not drawn),3396,1.2,0,-1,3,-1,-8
CCC(C)NC(=O)CNC(=S)N(CCCN1CCOCC1)Cc1cccs1 (stereo not drawn),7644,·,1,·,·,·,-1
O=C(O)c1cccc(S(=O)(=O)Nc2cccc3ccccc23)c1,3972,5.6,19,6,4,-3,-13
CCn1ncc(/C=C/C(=O)NCc2cnn(C)c2C)c1C,11131,4.4,-5,2,-2,5,-20
COc1cc(OC)cc(-c2c(-c3ccc(F)cc3)c3cc(-c4cccc5[nH]ccc45)ccc3n2C)c1,2788,-2.5,·,19,10,-1,-14
COc1cccc(C2C(C(C)=O)=C(O)C(=O)N2CCc2c[nH]c3ccccc23)c1 (stereo not drawn),3102,4.4,5,·,·,4,-7
CNC(=O)c1ccc(OC2CSC2)cc1,3573,-0.2,-2,·,·,-6,-10
CCCCCCc1ccc(N2C[C@H](CCCCC)[C@@H](CC(=O)NCc3ccccc3)C2=O)cc1,3687,·,6,·,·,·,-23
COc1ccc(C=NNC(=S)SC)cc1OC,·,11,·,5,9,1,·
Cc1ccc2c(Cl)c(C(=O)NCC(c3ccco3)N3CCCC3)sc2c1 (stereo not drawn),6406,4.0,-3,-5,5,5,-16
CC(C)[C@H](NC(=O)c1ccco1)C(=O)N(C)Cc1c(F)cccc1Cl,6273,3.0,1,6,-1,4,-4
C#CC(=O)N(c1ccc(OC)c(OC)c1)C(C(=O)NC1CCCC1)c1cccs1 (stereo not drawn),11032,26,31,1,7,7,-31
COc1cc(C=Nn2cnnc2)ccc1OCCSc1ccc(C)cc1,·,10,·,15,10,-1,·
C/C(=N\N1CCCCCC1)c1c(O)n(C2CCCCC2)c(=O)[nH]c1=O,·,4.6,-3,13,4,3,4
CC(=O)N1CCN(CCS(=O)(=O)c2ccc(Br)cc2)CC1,5874,0.2,·,-3,6,-3,6
Cc1cc(C)c(-c2cc(C(=O)Nc3c(C)n(C)n(-c4ccccc4)c3=O)[nH]n2)c(O)c1,6031,4.6,0,1,10,-1,-12
CCOC(=O)C1CCN(S(=O)(=O)c2c[nH]c(=O)[nH]c2=O)CC1,?,0.1,1,-7,0,-1,-2
CCOc1ccc(C=NOCC(=O)Nc2ccc3c(c2)OCO3)cc1,·,7.2,·,3,8,18,·
Cc1c(Cl)cccc1NC(=O)CCCN1C(=O)CCC1=O,11140,3.1,-1,6,0,-1,·
CC(=O)Nc1ccc(S(=O)(=O)N2CCN(C(=O)c3ncoc3-c3cccc(C)c3)CC2)cc1,2929,-2.6,-14,-18,-11,3,-31
COc1ccc(/C=N\NC(=O)c2ccccc2OC)cc1COc1ccccc1C,6054,·,-6,·,·,·,-3
Cc1ccc(Cl)cc1NC(=O)NCc1cccnc1,6324,0.6,3,5,6,-4,-22
COc1nc(-c2ccccc2)nnc1-c1ccccc1,2547,13,-1,9,-1,9,-96
CCOCC(=O)Nc1cc(Cl)c(OC)cc1OC,·,1.8,7,4,11,-2,·
CC1(C)NC(=O)N(CC(=O)Nc2ccc(-n3cnnn3)cc2)C1=O,2912,1.5,·,4,-3,3,-1
COc1ccc(C(C(=O)NC2CCCC2)N(CCO)C(=O)Cn2nnc(-c3ccc(C)o3)n2)cc1 (stereo not drawn),4493,4.5,1,-8,-1,5,-4
O=C(Cn1c(-c2cncs2)nc2ccccc21)NC1CCCC1,4562,5.2,-2,10,5,4,-24
CC#CC(=O)N1CCC(n2nccc2NC(=O)c2ccc3c(c2)OCO3)CC1,5276,0.1,22,11,2,6,-19
Cc1cc(Br)ccc1NC(=O)C1CSC2(C)CCC(=O)N12 (stereo not drawn),5731,5.7,2,6,2,4,-16
CC(C)C[C@@H](C(=O)NCC1CCCO1)N1C(=O)N2CCc3c([nH]c4ccccc34)[C@@]2(C)C1=O (stereo partly drawn),5965,5.8,-4,·,·,-4,-4
NC(=O)C1CCN(CC(=O)Nc2ccccc2N2CCOCC2)CC1,4211,2.3,-2,-3,-3,5,-13
CC(CC(=O)NC(C)C)=NNC(=O)C(c1ccccc1)c1ccccc1,·,1.5,·,10,2,4,·
O=C(NN=C(CC(=O)c1cccs1)C(F)(F)F)c1ccncc1,·,8.1,·,5,-2,-6,·
COCCNC(=O)CSc1nc2ccccc2c(=O)n1-c1cccc(OC)c1,21564*,5.1,-16,-1,11,1,-53
CC(NC(=O)c1ccccc1)c1ccc(F)cc1 (stereo not drawn),2077,3.8,-5,·,·,2,-32
COc1ccccc1NC(=O)Cc1csc(NC(=S)Nc2ccccc2)n1,20382*,-6.7,0,0,4,-22,-29
NC(=O)c1ncc(C(F)(F)F)cc1Oc1ccc(F)cc1,3922,1.5,6,·,·,6,-15
CCn1c(=O)c2ccccc2n(CC(=O)N2CCCc3ccccc32)c1=O,5565,1.2,-3,-8,-4,-1,-4
CN(C)CCCn1c2c(c(SCC(=O)Nc3ccc4c(c3)OCCO4)nc1=O)CCC2,?,·,10,·,·,·,5
Cc1ccc(-c2nn(-c3cc(Cl)ccc3[N+](=O)[O-])c(=O)c3ccccc23)cc1C,3478,-1.6,6,0,0,14,-4
CC(=NNC(=O)c1ccc(N)cc1)C1CC1,·,2.8,·,5,-1,4,·
CCCCCOC(=O)Cc1c(O)c2ccccc2n(C)c1=O,9086,2.7,0,5,11,1,-31
CCN(/N=C/C=C/c1ccccc1)c1cc(=O)n(C)c(=O)[nH]1,2718,·,4,·,·,·,-22
Cc1ccc(C(=O)Nc2ccc3c(c2)C(=O)N(CC2CCCO2)C3=O)cc1 (stereo not drawn),6152,·,-11,·,·,·,-10
COc1ccc([N+](=O)[O-])c(OC)c1C(=O)NC(=O)Nc1c(C)cccc1C,3962,4.3,2,6,-5,13,-19
COc1ccc(Cl)cc1NC(=O)COc1cccc(-n2cnnn2)c1,4234,-3.2,2,0,1,-27,-19
CCOC(=O)c1cc(-c2ccccc2C)n(Cc2cc(C)no2)n1,4535,6.7,·,10,11,8,0
CC(C)c1ccc(NC(=O)CCNS(=O)(=O)c2cc(Br)cnc2N)cc1,5474,2.8,-1,7,18,-4,-7
O=C(N/N=C/c1ccc(COc2ccc(Br)cc2)o1)c1ccco1,11327,·,-8,·,·,·,-33
CCOP(=O)(OCC)C(NC(=O)c1ccc(Cl)cc1)=C(Cl)Cl,9332,7.0,14,10,6,10,-21
Cc1c(C)c(C)c(S(=O)(=O)N2CCSCC2)c(C)c1C,6236,9.3,-6,15,16,10,-5
Cc1cccc(C=NNC(=O)c2ccc(NC(=O)c3cccc(Cl)c3)cc2)n1,·,1.0,·,-1,-3,2,·
CCS(=O)(=O)N1CCC(C(=O)N2CCc3ccccc3C2)CC1,5480,1.0,-1,6,2,3,-21
CCOc1ccc2[nH]c(=O)c(CN(Cc3ccc(F)cc3)C(=O)N3CCCC3)cc2c1,4245,4.5,-11,-1,7,-4,10

# Ordered by heavy-atom count (ascending): some entries from above
SMILES,Bead autofluor,Sa RN4220 lethal,BJeLR lethal,Mtb hypoxia rep,Mtb hypoxia rep growth,ugtP null kill,PrP 5UTR inh
CCCCCOC(=O)Cc1c(O)c2ccccc2n(C)c1=O,9086,2.7,0,5,11,1,-31
CCS(=O)(=O)N1CCC(C(=O)N2CCc3ccccc3C2)CC1,5480,1.0,-1,6,2,3,-21
CCOC(=O)c1cc(-c2ccccc2C)n(Cc2cc(C)no2)n1,4535,6.7,·,10,11,8,0

# Next section
SMILES,Bead autofluor,Sa RN4220 lethal,BJeLR lethal,Mtb hypoxia rep,Mtb hypoxia rep growth,ugtP null kill,PrP 5UTR inh
Cc1nnc(-c2cnn(C)c2N)n1CCCN1CCOCC1,4434,6.5,2,-11,-7,6,-23
CC(=O)N1CCC(N(CCCOC(C)C)S(=O)(=O)c2ccc([N+](=O)[O-])cc2)CC1,3118,7.2,1,2,9,-2,-3
Cn1c(=O)n(CCc2ccccc2)c(=O)c2c1nc1n2CCCN1Cc1ccccc1,4320,-2.2,-3,·,·,8,-4
CCS(=O)(=O)NC(C)c1nnc2n1-c1ccc(Br)cc1C(c1ccccc1Cl)=NC2 (stereo not drawn),·,4.2,-3,8,-5,12,·
COc1ccc(C2CC(c3ccccc3)=NN2C(=O)COC(=O)c2cccnc2)cc1 (stereo not drawn),2751,-1.8,17,11,-4,2,-11
O=C(NNc1ccccc1)/C(=C\c1cccnc1)NC(=O)c1ccccc1,5885,3.5,-5,4,-2,4,-24
O=C(COC(=O)c1ccc2c(c1)S(=O)(=O)N=C1CCCCCN12)NCc1cccs1,5965,0.7,3,-11,-2,6,-3
O=c1nc(Nc2ccccc2)sc2ccc([N+](=O)[O-])cc12,2104,·,0,·,·,·,1
O=C(CNC(=O)C1CCCCC1)Nc1cc(Cl)ccc1Cl,1911,4.4,1,-4,9,6,-13
Cc1ccc(C(=O)N2CCC(C(=O)NC3CCCCCC3)CC2)cc1,3987,1.1,5,9,18,5,-20
O=C(COc1ccc(C=NNS(=O)(=O)c2ccccc2)cc1)Nc1ccccc1,·,3.6,·,12,20,3,·
Cc1csc(CNc2ncnc3ccc(-c4ccc5c(c4)OCO5)cc23)c1,3889,2.6,·,4,9,-24,11
Cc1ccccc1Nc1nc(N)nc(CN2CCN(Cc3ccc4c(c3)OCO4)CC2)n1,3831,8.6,-2,7,6,6,-49
CN(C1=C(NC(=O)c2ccc(Cl)cc2)C(=O)c2ccccc2C1=O)c1ccccc1,1490,·,-8,·,·,·,-15
CCN(c1cccc(C)c1)S(=O)(=O)c1cccc2nsnc12,4525,4.0,-3,1,6,4,-55
Cc1ccc(S(=O)(=O)NCCC(=O)Nc2ccc(Cl)c(Cl)c2)cc1,1994,0.3,2,11,3,-18,-4
COc1ccc(-c2cc3c(=O)n(CC(=O)NCc4ccc(Cl)cc4)ncn3n2)cc1,4008,11,3,3,4,-3,-66
CCN1CCN(S(=O)(=O)c2ccc(Cl)c(C(=O)N(CC)Cc3ccccc3)c2)CC1,6258,6.7,·,6,2,2,-24
CCOc1ccc(-n2ccn(CC(=O)NCCc3ccccc3)c(=O)c2=O)cc1,5610,0.8,4,-11,0,2,-15
Cc1ccc(-c2nnc(SCC(=O)OC(C)C)n2N)cc1,9130,6.1,0,8,7,-14,-23
O=C(COc1ccccc1)NNC(=O)COc1ccc([N+](=O)[O-])cc1,2509,-0.8,-8,2,8,5,-10
CN(Cc1ccccc1)CC1CCCN(CCc2ccccc2F)C1 (stereo not drawn),4795,-1.2,-14,2,2,2,-22
COc1cc(Cl)c(C)cc1NC(=O)CSc1nnc(-c2ccco2)n1CC(C)C,?,13,-6,18,4,4,-14
Nc1c(S(=O)(=O)c2ccccc2)c2nc3ccccc3nc2n1C1CC1,3301,-7.2,-2,12,4,7,-10
CC(=O)N/C(=C\c1ccccc1)C(=O)OCC(=O)c1ccc(F)cc1,6047,4.7,7,-4,-4,-3,-11
O=C(/C=C1\NC2(CCCC2)Cc2ccccc21)N1CCOCC1,2497,·,8,·,·,·,-7
CCCCN(C(=O)CCN1C(=O)C2CC=CCC2C1=O)c1c(N)n(CCCC)c(=O)[nH]c1=O (stereo not drawn),6407,3.7,·,-2,1,5,-17
Cc1ccc(Sc2ncccc2C(=O)N(C)Cc2cccs2)c(C)c1,5490,2.3,-5,13,5,17,-25
O=C(COc1cccc2cccnc12)Nc1ccccc1,4327,0.9,-5,-5,-6,1,-27
CCOc1ccc(/C=C/C(=O)c2ccccc2)cc1,2896,7.1,6,·,·,3,-52
